# Compound activity (PubChem BioAssay)
# KCNQ2 pot: potentiators of rat KCNQ2 potassium channel. Potassium voltage-gated channel subfamily KQT member 2 (Rattus norvegicus), O88943. 310,000 compounds, 0.54% hits. CHO-K1 KCNQ2, FluxOR thallium flux fluorescence; stronger effect = higher value. B-score at 10 µM;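 active means fluorescence ratio B-score at least 3 SD of library B-scores, with initial fluorescence B-score within 3 SD, cut at about 5.3 in these data; same plate scores as AID 2156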;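 further: B-score of peak minus minimum over baseline fluorescence ratio after K+ and Tl+ stimulus; positive B-score means potentiation of KCNQ2 with more thallium influx and brighter signal; only the inactives scoring about 0 or higher are listed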
# Target sequence (O88943 whole entry, looked up): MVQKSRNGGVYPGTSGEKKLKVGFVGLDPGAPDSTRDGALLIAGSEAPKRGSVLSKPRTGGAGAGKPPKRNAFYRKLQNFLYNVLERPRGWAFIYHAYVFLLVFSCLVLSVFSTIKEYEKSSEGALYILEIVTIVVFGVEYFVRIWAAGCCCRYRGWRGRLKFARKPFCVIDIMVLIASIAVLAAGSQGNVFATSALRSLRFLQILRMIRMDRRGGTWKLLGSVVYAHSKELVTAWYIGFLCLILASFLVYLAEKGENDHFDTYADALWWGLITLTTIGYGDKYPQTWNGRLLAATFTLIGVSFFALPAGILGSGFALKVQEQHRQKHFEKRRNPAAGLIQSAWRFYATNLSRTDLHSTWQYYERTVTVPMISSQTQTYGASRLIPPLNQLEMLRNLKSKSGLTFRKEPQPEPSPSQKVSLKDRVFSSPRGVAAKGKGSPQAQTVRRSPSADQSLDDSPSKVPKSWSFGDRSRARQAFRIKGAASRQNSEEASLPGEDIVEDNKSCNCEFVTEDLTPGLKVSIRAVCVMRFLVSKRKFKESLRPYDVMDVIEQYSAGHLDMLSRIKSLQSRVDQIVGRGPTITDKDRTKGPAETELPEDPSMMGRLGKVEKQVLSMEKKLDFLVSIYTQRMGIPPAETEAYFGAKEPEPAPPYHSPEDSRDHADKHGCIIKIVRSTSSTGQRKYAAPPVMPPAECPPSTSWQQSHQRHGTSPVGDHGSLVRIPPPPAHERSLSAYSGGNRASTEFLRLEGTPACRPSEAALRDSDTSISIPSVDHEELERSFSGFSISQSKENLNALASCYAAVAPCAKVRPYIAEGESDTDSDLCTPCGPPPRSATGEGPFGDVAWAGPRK
# KCNQ2 pot baseline: recorded beside KCNQ2 pot, whose call it bears; B-score; compound at 10 µM; measured here: initial fluorescence intensity artifact check;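 brightness before thallium and not channel activity; 0 = typical well and far values either way flag optical interference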
# Active calls of the source: *.
# Preview (three entries):
KCNQ2 pot	KCNQ2 pot baseline	molecule
0.05	0.78	O=C(COc1cccc(Cl)c1)Nc1ccc2c(c1)CCC2
0.32	-0.01	CN1CCN(NC(=O)c2ccc(Cl)s2)CC1
0.59	0.03	COc1ccccc1CNc1ncccn1

# The whole of this part, previewed entries included:
KCNQ2 pot	KCNQ2 pot baseline	molecule
0.05	0.78	O=C(COc1cccc(Cl)c1)Nc1ccc2c(c1)CCC2
0.32	-0.01	CN1CCN(NC(=O)c2ccc(Cl)s2)CC1
0.59	0.03	COc1ccccc1CNc1ncccn1
0.78	-0.28	O=C(Nc1ccc2c(c1)OCO2)c1ccc(Br)s1
1.2	0.24	O=C(O)c1ccc(N=C2SCC(=O)N2Cc2ccccc2)cc1
0.25	-0.97	CCOc1ccc(OCC)c(NC(=O)CN(C)S(=O)(=O)c2cccc3nsnc23)c1
0.02	-2.7	CCOC(=O)c1c(C)n(-c2ccc(F)cc2)c2ccc(O)cc12
0.67	1.2	CCN(CC)CCN1C(=O)C(=O)/C(=C(/O)c2ccc(OC)cc2)C1c1ccco1 (configuration not stated)
0.61	0.36	O=C(CCc1nc2ccccc2c(=O)[nH]1)OCc1ccc(-c2ccccc2)cc1
0.01	-0.87	O=S(=O)(Nc1ccc(F)cc1)N1CCCCCC1
1.4	-0.11	CC(O)C(=O)N/N=C/c1cccc2ccccc12 (configuration not stated)
0.12	-1.4	COc1ccccc1-c1nc(=S)c(C(C)=O)c(C)[nH]1
0.44	-0.53	COc1cccc(C2C(C(=O)c3cc4ccccc4o3)=C(O)C(=O)N2c2cc(C)on2)c1OC (configuration not stated)
0.08	-0.01	Nc1nonc1-n1nnc(C(=O)N/N=C/c2ccccc2Cl)c1CN1CCOCC1
0.1	-0.17	Cc1cc(-c2csc(NC(=O)c3ccc(=O)[nH]c3)n2)c(C)n1Cc1ccco1
0.89	-0.36	Cn1c(=O)n(CCOc2ccc([N+](=O)[O-])cc2)c2ccccc21
0.29	1	COc1ccccc1N(C(=O)c1snc(C(N)=O)c1N)C(C(=O)NC1CCCC1)c1ccc2ncccc2c1 (configuration not stated)
0.21	1.2	COC(=O)c1ccc(N=Nc2ccccc2)cc1
0.64	1.4	Cc1sc2ncnc(N[C@@H](Cc3c[nH]c4ccccc34)C(=O)O)c2c1C
1.4	0.58	CCCOc1ccc(S(=O)(=O)N2CCOCC2)cc1[N+](=O)[O-]
0.13	-0.25	Clc1cccc(OCc2nc(-c3ccncc3)n[nH]2)c1
1.1	1.9	COc1ccc(-n2c(-c3ccco3)nc3c(cnn3-c3ccccc3C)c2=O)cc1
4.9	-1.9	Cc1ccc(-c2cc(-c3ccccc3)[nH]c(=S)c2C#N)cc1
1.1	0.85	O=C(O)c1ccc(N=NN2CCCCC2)cc1
1.7	-1	Cc1cc(-c2ccc(/C=N/n3cnnc3)o2)c(C)c([N+](=O)[O-])c1

# Look-ups from the list.
# KCNQ2 pot baseline with CC(O)C(=O)N/N=C/c1cccc2ccccc12 (configuration not stated) reads -0.11
# KCNQ2 pot baseline with COc1ccccc1CNc1ncccn1 reads 0.03

# (list continues)
KCNQ2 pot	KCNQ2 pot baseline	molecule
1.6	-2	CC(C)CC(NS(=O)(=O)c1ccc2c(c1)oc(=O)n2C)C(=O)NCc1cccnc1 (configuration not stated)
0.89	2.4	COc1cc(C=O)cc(OC)c1OS(=O)(=O)c1ccc(NC(C)=O)cc1
1.4	0.16	Cn1c(=O)c2c(nc(NCCc3ccccc3)n2Cc2ccccc2)n(C)c1=O
0.13	-0.92	CCOC(=O)C[C@H]1c2cc(C(F)(F)F)ccc2S(=O)(=O)N1Cc1ccccc1
0.77	-1.1	CCCC(=O)Nc1cc(C)c(NC(=O)c2ccccn2)cn1
0.93	-0.58	CCCCCOC(=O)c1ccc(N2C(=O)C3C4C=CC(C4)C3C2=O)cc1 (configuration not stated)
0.21	0.96	COc1cnc(-c2cccc(C(F)(F)F)c2)nc1OC
0.67	0.03	CCNC(=O)COC(=O)/C=C/c1cccs1
3.9	1.1	CC(NC(=O)Cc1cccs1)C(c1cccs1)N1CCN(c2ccccc2F)CC1 (configuration not stated)
0.01	-0.39	O=C(O)/C=C/c1cn(Cc2ccccc2)nc1-c1ccccc1
0.83	0.14	Cc1ccccc1Nc1ccc([N+](=O)[O-])cn1
0.51	-0.32	COC(=O)C1=C(C)N(CC(C)C)C(=O)C1
0.19	0.01	c1ccc2c(c1)OCC(c1nnc3n1-c1ccccc1SC3)O2 (configuration not stated)
1.3	0.02	COCCn1c(SCC(=O)N2CCCC2)nc2c([nH]c3ccccc32)c1=O
1.3	1.1	Cc1cc(C(=O)COc2ccccc2[N+](=O)[O-])c(C)n1C1CC1
0.05	-1.2	O=C(NCc1nc(-c2ccc(C(F)(F)F)cc2)no1)Nc1cc(Cl)cc(Cl)c1
1	-0.51	CCCn1c(=N)c(C(=O)NCc2ccc3c(c2)OCO3)cc2c(=O)n3cccc(C)c3nc21
0.17	0.13	COc1ccc(CC2(CO)CCN(Cc3cc4ccccc4o3)CC2)cc1
1.3	-3.8	CCOC(=O)COc1ccccc1-c1ccno1
0.97	0	CCN(CC(=O)Nc1ccc(OC)cc1)C(=O)c1cc([N+](=O)[O-])ccc1N1CCOCC1
2	2	O=C(Nc1ccccc1C(=O)N/N=C/c1ccco1)c1ccc(F)cc1
1.4	-0.19	c1csc(-c2nnc(N3CCOCC3)c3ccccc23)c1
2	-0.63	O=C(c1cccc(C(F)(F)F)c1)C1CCCN(C(=O)CCn2cnnn2)C1 (configuration not stated)
1.9	0.98	COC(=O)C1=C(C)N(CCCC(=O)O)C(=O)NC1c1cccc2ccccc12 (configuration not stated)
1.9	-2.1	COc1ccc(C(=O)NNC(=O)c2ccccc2[N+](=O)[O-])cc1

# (listing goes on)
KCNQ2 pot	KCNQ2 pot baseline	molecule
1.1	0.3	Cc1ccc(-n2c(C)cc(C(=O)NS(=O)(=O)c3ccc(C)cc3)c2C)cc1
0.85	1.4	Cc1cc(Nc2nc3ccccc3nc2Cl)n(-c2ccccc2)n1
1.7	0.01	CC(C)CN1CCNC(=O)C1CC(=O)NCCc1cnn(-c2ccccc2)c1 (configuration not stated)
0.1	0.21	COc1ccc(-c2[nH]n(-c3ccc([N+](=O)[O-])cc3)c(=O)c2C=NCc2ccc(F)cc2)cc1
0.61	0.35	CCc1ccc(C(=O)CN2C(=O)NC(C)(c3ccc(C)cc3)C2=O)cc1 (configuration not stated)
0.23	-1.7	CN(C(=O)COC(=O)CNC(=O)c1ccc(C(C)(C)C)cc1)c1c(N)n(Cc2ccccc2)c(=O)[nH]c1=O
1.9	-0.16	CCNc1nc(SCC(=O)Nc2ccccc2)nc(N2CCOCC2)n1
0.6	0.48	Cc1nn(CC2CC2)c(=O)n1-c1cccc(Cl)c1
2.3	-2.5	COc1ccc(NC(=O)CCNS(=O)(=O)c2ccc3c(c2)CC(C)N3C(=O)C2CC2)cc1 (configuration not stated)
0.18	-1.1	CC/C(O)=C1\C(=O)CC(c2ccccc2)CC1=NCCC(=O)O (configuration not stated)
0.66	-3	CC(=O)Nc1cccc(NC(=O)CSc2nc(=O)n(CCN3CCOCC3)c3c2CCCC3)c1
0.01	0.21	CCOc1cc(NC(=O)Nc2ccc(F)cc2)c(OCC)cc1NC(=O)CC
0.39	-1.9	O=C(CN1CCN(c2ncccn2)CC1)NCc1ccc2c(c1)OCO2
2.8	0.31	O=C1CC(=O)N(CCc2ccccc2)C(=O)N1CCc1ccccc1
0.04	-0.94	NS(=O)(=O)c1ccc(CCNCc2cccs2)cc1
0.37	0.1	CC(C)(C)NS(=O)(=O)c1ccc(OCC(=O)NCC2CCCO2)cc1 (configuration not stated)
0.24	0.9	O=C(NCCCN1CCOCC1)C1COc2ccccc2O1 (configuration not stated)
1.1	0.64	Cc1ccc(C(=O)/C=C/c2cc(C#N)n(C)c2C)cc1
0.99	-0.03	COc1ccc(CN2CCOCCOCCOCCOCCOCC2)cc1
0.77	1.1	CCOc1ccc(S(=O)(=O)N2CCC(C(=O)NCc3ccncc3)CC2)cc1Cl
0.12	1.2	CC(C)(C)n1nnnc1CN1CCC(NC(=O)NC2CCCCC2)CC1
0.04	-1.3	CN1C2=CC=CC=CC2=[N+](C)C12C([N+](=O)[O-])=CC(=[N+]([O-])[O-])C=C2[N+](=O)[O-] (configuration not stated)
0.12	-0.57	CCCCCNC(=O)Cc1ccc(S(=O)(=O)N2CCOCC2)s1
1.5	-1.1	COc1ccc(OC)c(N(CC(N)=O)S(=O)(=O)c2ccc(OC)c(OC)c2)c1
0.78	-1.5	O=C1/C(=C/c2ccccc2F)SC(=S)N1CC(=O)N1CCCCC1c1cccnc1 (configuration not stated)

# 5 of the entries above in order of the KCNQ2 pot baseline value, smallest number first.
KCNQ2 pot	KCNQ2 pot baseline	molecule
2.3	-2.5	COc1ccc(NC(=O)CCNS(=O)(=O)c2ccc3c(c2)CC(C)N3C(=O)C2CC2)cc1 (configuration not stated)
0.39	-1.9	O=C(CN1CCN(c2ncccn2)CC1)NCc1ccc2c(c1)OCO2
0.04	-0.94	NS(=O)(=O)c1ccc(CCNCc2cccs2)cc1
0.77	1.1	CCOc1ccc(S(=O)(=O)N2CCC(C(=O)NCc3ccncc3)CC2)cc1Cl
0.85	1.4	Cc1cc(Nc2nc3ccccc3nc2Cl)n(-c2ccccc2)n1

# (cont.)
KCNQ2 pot	KCNQ2 pot baseline	molecule
0.37	1.6	Fc1ccc(Cn2c(-c3cscn3)nc3ccccc32)c(Cl)c1
0.28	-0.49	Cc1ccc(-c2c3c(nc4sc(C(N)=O)c(N)c24)CCCC3)o1
0.26	-1.7	CC(=O)c1cc(C)ccc1OC(=O)c1ccncc1
0.02	-0.76	COCCCNC(=O)C1CCCCN1S(=O)(=O)c1ccc(F)cc1 (configuration not stated)
0.34	0.23	O=C(O)c1ccc2nc(-c3ccccc3)sc2c1
0.1	0	O=C(Nc1ccc2c(c1)OCCO2)NC1(C(F)(F)F)Oc2ccccc2O1
1.3	0.61	O=C(c1c[nH]c(C(=O)N2CCN(Cc3ccccc3)CC2)c1)C1CCCCC1
0.88	1.3	CCCN1CCC(=O)N(CCN=[N+]=[N-])CC1
0.31	1.2	Cc1ccc(CNCCNCCO)s1
0.27	-0.99	O=C(NNC(=O)c1cccnc1)Nc1ccc([N+](=O)[O-])cc1
5.7*	0.87*	CCc1nc2sc3c(c2c(=O)n1NC(=O)CCl)CCCC3
0.44	-1.2	COc1ccc(-c2c(C)nn3c(N4CCC(C(=O)NCCN(C)C)CC4)cc(C)nc23)cc1OC
1.6	1.3	Cc1ccccc1CSc1ncnc2ccccc12
0.48	-1.9	CS/C(=N\S(=O)(=O)c1ccc(N)cc1)NS(=O)(=O)c1cccs1
0.32	-0.36	Cc1cc(C)cc(N2CN=c3s/c(=C\c4ccco4)c(=O)n3C2)c1
0.97	-1.5	O=C(CCCN=C1NS(=O)(=O)c2ccccc21)OCC(=O)c1ccccc1Cl
0.32	1	CC1CC(C(F)(F)C(F)(F)F)n2nc(C(=O)O)cc2N1 (configuration not stated)
0.63	-1.7	Cc1ccc(SC/C(O)=C(\C#N)c2nc3ccccc3s2)cc1
0.49	-1.2	COc1ccccc1Nc1nc(N)nc(-c2oc3ccccc3c2C)n1
0.98	-1.8	Cc1ccc(-n2c(-c3nn(C)c(C)c3Cl)n[nH]c2=S)cc1
0.86	-0.29	CCc1ccccc1NCc1cc(=O)oc2cc(C)ccc12
0.88	3.2	COc1ccc(CC(=O)Nc2nnc(C(C)C)s2)cc1OC
0.13	0.58	COc1ccc(-c2noc(CCC(=O)Nc3ccc4c(c3)OCCO4)n2)cc1
0.01	-1.9	O=C1C(Cc2ccccc2O)NC(=S)N1c1ccccc1 (configuration not stated)
0.02	0.03	COc1cc(OC)c(CN2CCC(Cc3ccccc3)CC2)cc1Br

# Next results:
KCNQ2 pot	KCNQ2 pot baseline	molecule
0.61	-0.34	Cc1c(NC(=O)/C=C/c2cn(-c3ccccc3)nc2-c2ccc(F)cc2)c(=O)n(-c2ccccc2)n1C
1.1	1.6	O=C(NCCc1ccccc1)C1CC(=O)N(CCc2ccccc2)C1 (configuration not stated)
0.42	-0.9	Cc1cc(C)cc(C(=O)NC(=S)Nc2ccc3c(c2)OCCO3)c1
1.1	-0.22	CCOC(=O)N1CCC(NC(=O)c2cc3c(-c4ccccc4F)nn(C)c3s2)CC1
5.4*	-0.33*	COc1ccc(C2=NOC(Cn3c(Cc4ccc(Cl)cc4)nc4c3c(=O)n(C)c(=O)n4C)C2)cc1 (configuration not stated)
0.7	-1.8	Cc1cccc(-n2c(SCC(=O)O)nc3sc4c(c3c2=O)CCC4)c1
0.08	1.6	CC(=O)c1cc(C)ccc1OC(=O)c1cccc2nc(C)oc12
0.07	1.1	COc1ccccc1NC(=O)CSCc1cc(=O)n2ccsc2n1
0.85	-0.63	COC(=O)CC1Sc2ccccc2NC1=O (configuration not stated)
1.3	0.01	CN(C)C(=O)CSc1nnc(-c2cc(-c3cccs3)nc3ccccc23)o1
1.8	0.1	CC(O)CN1CC(O)=C(c2nc3ccccc3s2)C1=N (configuration not stated)
0.07	1.1	CCN(Cc1cnn(C)c1)C(=O)c1ccc(OC2CCN(S(=O)(=O)N(C)C)CC2)cc1
0.6	0.01	CC(C)(C)c1cc(NC(=O)Nc2ccccc2OC(F)(F)F)no1
0.18	0.79	CC1=NNC(=O)C1CCC(=O)N/N=C\c1ccccc1[N+](=O)[O-] (configuration not stated)

# A portion of the library, so the mix of outcomes need not match the whole.
